PrP UTR inh = suppresses PrP 5' UTR mRNA reporter expression | cell-based PrP 5' UTR mRNA reporter, plate reader | inhibition, % (test concentration not listed) | 340,000 compounds, 0.35% hits | AID 488862;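 active = every replicate at 50% or more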;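 note: 0 = median of the neutral control wells; tested in H4 reporter cells; numbers are from one replicate; inactives centre near -14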
Autofluor counter = flagged as autofluorescent in microsphere protease counterscreen. fluorescence intensity (test concentration not listed). 360,000 compounds, 3.1% hits. compound autofluorescence counterscreen, microsphere flow cytometry; hits give high values;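 active = at least 3 SD above the mean of all compounds, about 16000 in these data; inconclusive = too few beads counted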;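 note: 100 nL of 1 mM stock went into each well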
* marks the source's active call; other numbers are inactive results; ? = inconclusive. Some of the compounds tested (hit frequency here may not be typical).

SMILES	PrP UTR inh	Autofluor counter
Cc1cc(CNC(=O)[C@H](C)[C@@H]2C[C@@]2(C)[C@@H](NC(=O)OCc2ccccc2)c2ccccc2)nn1C	-16.4	3090
C/C(=C(/CCO)SSCC1CCCO1)N(C=O)Cc1cnc(C)nc1N (configuration not stated)	9.6	5562
C/C(=N\NC(=O)c1cc(C)oc1C)c1ccc(C)c([N+](=O)[O-])c1	-38.7	3666
N=c1nc2n(cc1F)C1OC(CO)C(O)C1O2 (configuration not stated)	24.0	3710
CC1Cc2cc(/C(O)=C3/C(=O)C(=O)N(CCCn4ccnc4)C3c3ccc([N+](=O)[O-])cc3)ccc2O1 (configuration not stated)	-12.6	5258
C#CCOCCOCCOCCNc1nc(N2CCN(C(=O)CCCCCCCCCCNC(=O)Cn3cc(CCCCCN)nn3)CC2)nc(N2CCN(C(=O)CCCCCCCCCCNC(=O)Cn3cc(C[C@@H](C)O)nn3)CC2)n1	-19.3	2723
COc1cc2c(cc1OC)C13CCN4C=C5CCOC6CC(=O)N2C1C6C5CC43 (configuration not stated)	-12.7	3497
CC(=O)N[C@@H](Cc1c[nH]c2ccccc12)C(=O)OCc1cc(C(F)(F)F)cc(C(F)(F)F)c1	-6.4	4462
Oc1ccc(C[C@H]2CNC(=S)N2CC2CCCN2C[C@H](Cc2ccc(O)cc2)N2C[C@H](Cc3ccccc3)N(CC3CCCCC3)C2=S)cc1 (some centres not stated)	-19.3	3956
COC(=O)C1=C(c2ccc3ccccc3c2)C[C@@H]2CC[C@H]1N2C(=O)NCC1CC1	-12.5	3865
O=C(O)C1CCN(Cc2oc(CO)cc(=O)c2O)C1 (configuration not stated)	-13.3	3034
O=C1Nc2ccc(Br)cc2/C1=C/C(=O)c1ccccc1	-18.9	3841
COc1ccccc1NS(=O)(=O)c1cccc(C(=O)N/N=C/c2ccc([N+](=O)[O-])o2)c1	-9.4	?
C#CCOCCOCCOCCNc1nc(N2CCN(C(=O)Cn3cc(CCO)nn3)CC2)nc(N2CCN(C(=O)[C@H](CCCCN)n3cc(CC(C)O)nn3)CC2)n1 (some centres not stated)	-10.6	4102
Cc1ccc2c(C)c(C)c(=O)n(C)c2c1	25.3	3825
CC(C)(O)CC[C@@H](O)[C@](C)(O)C1CC[C@@]2(O)C3=CC(=O)[C@@H]4C[C@@H](O)[C@@H](O)C[C@]4(C)C3CC[C@]12C (some centres not stated)	-20.7	4123
O=C1C=C(c2ccc(-c3ccccc3)cc2)C[C@@H](c2ccc3c(c2)OCO3)C1	-12.3	3322
CN1C[C@@H]2[C@@H]3C(=O)N(Cc4ccccc4)C(=O)[C@@H]3[C@](C)(C1=O)N2C(=O)c1ccc(Br)cc1	-14.8	3816
C#CCOCCOCCOCCNc1nc(N2CCN(C(=O)CCCCCCCCCCNC(=O)[C@H](CCCCN)n3cc(CCO)nn3)CC2)nc(N2CCN(C(=O)CCCCCCCCCCNC(=O)[C@H](CCCCN)n3cc(CCCC(=O)O)nn3)CC2)n1	-9.2	5188
CC(=O)N1CCN(c2ccc(NCc3ccc(-c4cccc(Cl)c4)o3)cc2)CC1	-15.0	3697
CCOc1ccc(/C=N/NC(=O)c2ccc(F)cc2)cc1CN1CC2CC(C1)c1cccc(=O)n1C2 (configuration not stated)	2.9	5334
Cn1c(=O)c2[nH]c(=O)[nH]c2n(C)c1=O	-6.6	5440
CC(C)(O)/C=C/C(=O)[C@](C)(O)C1[C@H](O)C[C@@]2(C)C3CC=C4C(C=C(O[C@@H]5O[C@H](CO)[C@@H](O)[C@H](O)[C@H]5O)C(=O)C4(C)C)[C@]3(C)C(=O)C[C@]12C (some centres not stated)	-11.2	3960
COc1ccc(S(=O)(=O)N2CCCCC2)cc1NC(=O)Cc1ccc(Br)cc1	-8.8	4010
Cc1ccc(S(=O)(=O)N2[C@@H](c3cccc(Cl)c3)C(C(=O)O)=CC[C@H]2c2cccc(Cl)c2)cc1	-10.4	2962

Complete entries, quoted from the list. Values in the order: PrP UTR inh | Autofluor counter
C#CCOCCOCCOCCNc1nc(N2CCN(C(=O)CCCCCCCCCCNC(=O)Cn3cc(CCCCCN)nn3)CC2)nc(N2CCN(C(=O)CCCCCCCCCCNC(=O)Cn3cc(C[C@@H](C)O)nn3)CC2)n1 across the screens: -19.3 | 2723
O=C1C=C(c2ccc(-c3ccccc3)cc2)C[C@@H](c2ccc3c(c2)OCO3)C1 across the screens: -12.3 | 3322
COc1ccccc1NS(=O)(=O)c1cccc(C(=O)N/N=C/c2ccc([N+](=O)[O-])o2)c1 across the screens: -9.4 | ?
COC(=O)C1=C(c2ccc3ccccc3c2)C[C@@H]2CC[C@H]1N2C(=O)NCC1CC1 across the screens: -12.5 | 3865
C#CCOCCOCCOCCNc1nc(N2CCN(C(=O)CCCCCCCCCCNC(=O)[C@H](CCCCN)n3cc(CCO)nn3)CC2)nc(N2CCN(C(=O)CCCCCCCCCCNC(=O)[C@H](CCCCN)n3cc(CCCC(=O)O)nn3)CC2)n1 across the screens: -9.2 | 5188

The results go on:
SMILES	PrP UTR inh	Autofluor counter
C[C@H](CO)N1C[C@H](C)[C@@H](CN(C)S(=O)(=O)c2ccc(F)cc2)Oc2ccc(NS(=O)(=O)c3ccccc3)cc2C1=O	-25.1	3689
Cc1ccc(S(=O)(=O)N2[C@@H](c3cccc(Cl)c3)C(C(=O)O)=CC[C@H]2c2ccc(Cl)cc2)cc1	-8.1	2911
O=C(N/N=C/c1ccc(Cl)cc1Cl)Nc1ccccc1	-44.5	20342*
Cc1ccc(SCC(=O)N2CCN(c3ccc(F)cc3)CC2)cc1	-2.9	3263
COC(=O)C1=C(c2cccc(NC(C)=O)c2)C[C@@H]2CC[C@H]1N2C	-14.6	3994
Cc1cc2c(cc1C)NC1(C[C@H]3CCC(=O)N4CC[C@@H](C1)[C@@H]34)C(=NC(C)(C)CC(C)(C)C)N2 (some centres not stated)	-14.2	3692
CC1=C/C(=N\OS(=O)(=O)c2ccccc2)C(C(C)C)=CC1=O	-8.3	2284
O=S(=O)(/N=C(/c1ccccc1)N1CCOCC1)c1ccc(F)cc1F	4.0	6332
CC(=O)C1(O)CCC2C3CC(C)C4=CC(=O)C=CC4(C)C3(F)C(O)CC21C (configuration not stated)	-4.8	3674
COc1cc(C=O)ccc1OCc1cn(CC(=O)c2ccc(O)cc2)nn1	1.5	3445
C=C1CC2(OC1=O)c1ccccc1CCc1ccccc12	-49.0	3367
CCc1ccc([C@@H]2CC=C(C(=O)O)[C@H](c3ccccc3)N2S(=O)(=O)c2ccc(C)cc2)cc1	-6.7	4435
O=C(O)c1ccc(C=NNC(=O)c2cccc3ccccc23)cc1	36.4	3559
O=C(CN1C(=O)c2ccccc2C1=O)NCC(=O)Nc1ccccc1	-17.7	4308
O=C1C=C(c2ccc(O)cc2)C[C@@H](c2ccc3c(c2)OCO3)C1	67.2*	2772
CC(C)C(Cl)=NOC(=O)Nc1ccc(S(N)(=O)=O)cc1	-5.6	3770
O=C(NCc1ccccc1)c1ccc(NC(=O)C2CC2)cc1	-21.4	3840
COc1cc2c(cc1NC(=O)C(F)(F)F)-c1ccc(NC(=O)C(F)(F)F)cc1C2	56.4	3319
COC(=O)C1=C(c2ccc(F)cc2OCc2ccccc2)C[C@@H]2CC[C@H]1N2C(=O)NCCOc1ccc(OC)cc1	-12.5	3690
CCOC(=O)[C@@H](C)N(C(=O)OC(C)(C)C)S(=O)(=O)N(Cc1ccccc1)[C@H](C(=O)OC)C(C)C	-21.3	3432
COC(=O)C1=C(c2cccc(C#N)c2)C[C@@H]2CC[C@H]1N2C(=O)NC1CCCCC1	-3.3	4279
CCOC(=O)[C@H]1[C@H]2COc3ccc(OC)cc3[C@@H]2N2C(=O)[C@H](C)NC(=O)[C@@]12C	-10.5	4058
CC(C)(C)OC(=O)N1CCC(C(=O)Nc2cccc(C(=O)NCCc3ccccc3)c2)CC1	-34.3	2757
CC1CC=CCC12C(=O)NC(=S)NC2=O (configuration not stated)	-15.5	8932
O=C(Nc1c(Br)cc2c(c1Br)Cc1ccccc1-2)C(Cl)Cl	28.4	3703

Further compounds follow.
SMILES	PrP UTR inh	Autofluor counter
CCOC(=O)[C@H]1[C@H]2COc3ccc(C)cc3[C@@H]2N2C(=O)[C@@H](C)NC(=O)[C@@]12C	-22.6	4078
c1cc(OCCN2CC2)ccn1	-2.0	3862
COc1ccc(CN2CC(=O)N3[C@H]4c5ccccc5OC[C@@H]4[C@H](c4ccccc4)[C@]3(C)C2=O)cc1	-9.5	3848
COc1ccc(NC(=O)N(C)C[C@H]2Oc3ccc(NS(=O)(=O)c4ccccc4)cc3C(=O)N([C@H](C)CO)C[C@@H]2C)cc1	-19.6	2650
O=C(C[C@H]1C/C=C\C[C@@H](Cc2ccc(F)cc2)C(=O)O[C@@H](c2ccccc2)CNC1=O)N[C@@H](CO)Cc1ccccc1	-11.1	3675
COc1ccc(NS(=O)(=O)c2cccc(C(=O)NCC(c3ccc(OC)cc3)N3CCCCC3)c2)cc1 (configuration not stated)	2.6	7419
CCOC(=O)C1CCCN(C(=O)c2ccc(Cl)c(S(=O)(=O)N3CCc4ccccc43)c2)C1 (configuration not stated)	11.2	3980
CC(C)C[C@H]1CNC(=S)N1CC1CCN(CC2CCC(C(C)(C)C)CC2)CC1 (some centres not stated)	-8.5	4182
C[C@H](CO)N1C[C@H](C)[C@@H](CN(C)S(=O)(=O)c2ccc(F)cc2)Oc2ccc(NC(=O)c3ccncc3)cc2C1=O	-19.1	3170
C[C@@H]1CN([C@@H](C)CO)C(=O)c2cc(NS(=O)(=O)c3cccs3)ccc2O[C@H]1CN(C)Cc1ccc(C(F)(F)F)cc1	-33.4	3735
O=C(N/N=C/c1cc([N+](=O)[O-])cc([N+](=O)[O-])c1O)C(O)(c1ccccc1)c1ccccc1	-2.8	9225
COc1cc2c(cc1OC)C(=O)N1[C@H]3c4cc(C)ccc4OC[C@@H]3[C@H](c3ccccc3)[C@]1(C)C(=O)N2	-92.9	4110
CCOC(=O)[C@H]1[C@H]2COc3ccccc3[C@@H]2N2C(=O)c3cc(F)ccc3NC(=O)[C@@]12C	-20.9	3527
C=C1CC(COc2cc(=O)oc3ccccc23)(c2ccccc2)OC1=O (configuration not stated)	-20.8	3765
Cc1c(N)cccc1N	-20.3	4732
C/C(CC(=O)C(F)(F)F)=N\NC(=O)/C(C#N)=C/N(C)C	-16.5	3435
O=C1C=C(c2ccnc3cc(Cl)ccc23)C[C@@H](c2ccc3c(c2)OCO3)C1	-26.8	4111
COC(=O)[C@]12C(=O)NC[C@H](CN1c1ccc(C(F)(F)F)cc1)N2C	-9.8	4138
C=Cc1cc2c(cc1O)CCC1C2CCC2(C)C(O)CCC12 (configuration not stated)	-26.3	3203
O=C(N/N=C/c1ccc(F)c(F)c1)c1cccc(S(=O)(=O)N2CCCCC2)c1	-14.1	6546
CC1(C)CC[C@]2(C(=O)n3ccnc3)CC[C@]3(C)[C@H](C(=O)C=C4[C@@]5(C)C=C(C#N)C(=O)C(C)(C)[C@@H]5CC[C@]43C)[C@@H]2C1	94.5*	3376
COC(=O)C1=C(c2ccc(OC)c(OC)c2)C[C@@H]2CC[C@H]1N2C(=O)NCCCOC(C)C	-11.3	4666
COC(=O)C1=C(c2ccc(OC(F)(F)F)cc2)C[C@@H]2CC[C@H]1N2C(=O)NC1CC1	-11.0	3114
O=C(OCCOc1cccc(Cl)c1)c1ccc(F)c(S(=O)(=O)N2CCOCC2)c1	-21.1	3887
C[C@H](CO)N1C[C@H](C)[C@@H](CN(C)C(=O)NC2CCCCC2)Oc2c(NC(=O)Nc3ccc(C(F)(F)F)cc3)cccc2C1=O	-5.0	4048

(further entries)
SMILES	PrP UTR inh	Autofluor counter
C[C@H](CO)N1C[C@H](C)[C@@H](CN(C)CC2CC2)Oc2c(NC(=O)C3CC3)cccc2C1=O	-16.6	2954
COc1cc(/C=c2\s/c(=C(/C#N)C(=O)N3CCCC3)n(-c3ccccc3)c2=O)ccc1O	-0.6	2935
CC(C)(C)c1ccc(O)c(O)c1	-16.4	5136
CCOC(=O)[C@H]1[C@H]2COc3ccccc3[C@@H]2N2C(=O)c3cc(F)c(F)cc3NC(=O)[C@@]12C	-14.8	4163
CC(C)CCCN1C(N(C)C)=NC[C@@H]1Cc1ccccc1	-5.6	4126
O=C1C=C(c2ccc(F)c(Cl)c2)C[C@@H](c2ccc(F)cc2)C1	-9.3	3506
C=CC[C@@H](CC(=O)N[C@H](CO)Cc1ccccc1)C(=O)N[C@H](COC(=O)[C@@H](CC=C)CC(=O)OC(C)(C)C)Cc1c[nH]c2ccccc12	2.6	2994
C=CC[C@H](CC(=O)N(CCO)Cc1ccccc1)C(=O)N[C@H](C)COC(=O)[C@@H](CC=C)CC(=O)OC(C)(C)C	-22.6	3699
NC1=C(Cl)C(=O)c2ccccc2C1=O	-25.3	4328
COc1ccc(C)cc1Nc1n[n+](-c2ccccc2)c(-c2c(OC)ccc3ccccc23)s1	-13.4	3659
COc1ccc2c(c1)OC[C@H]1[C@@H]2N2C(=O)CNC(=O)[C@@]2(C)[C@H]1c1ccccc1	-19.5	3955
C[C@H](CO)N1C[C@H](C)[C@@H](CN(C)S(=O)(=O)c2cccs2)Oc2ccc(NC(=O)Nc3ccc4c(c3)OCO4)cc2C1=O	-17.7	3507
Cc1cccc(C(O)(C(=O)O)c2ccccc2)c1 (configuration not stated)	-1.2	3769
COCCNC(=O)CC(=O)N/N=C/c1cccc(C(=O)OC)c1	-17.7	3825
c1ccc([C@H]2CN3CCSC3=N2)cc1	-7.9	5352
c1ccc(COc2ncnc3c2ncn3CCCNCCN2CCOCC2)cc1	-22.3	4034
N#Cc1ccccc1S(=O)(=O)N1CCC(C(=O)NCc2ccccc2CN2CCCC2)CC1	5.3	3081
CCOC(=O)CC1c2ccccc2-n2nncc2CN1C (configuration not stated)	-9.5	3555
OCC1OC(n2ccc3c(SCc4ccccc4)ncnc32)C(O)C1O (configuration not stated)	-78.7	3992
C[C@H](CO)N1C[C@H](C)[C@@H](CN(C)Cc2ccc(-c3ccccc3)cc2)Oc2c(NC(=O)Nc3ccc(C(F)(F)F)cc3)cccc2C1=O	-3.0	3921
COc1ccc(/C=N/NC(=O)c2cc3c(ccc4ccccc43)o2)cc1OC	-15.8	5737
